AID504770: E. coli YBA685 growth inhibition, screen for V. cholerae RctB inhibitors; E. coli YBA685 rctB-dependent plasmid, OD600 growth, 3 h; stronger effect = lower value; z-score (no concentration beside the values); AID 504770; 130,000 tested, 0.27% active;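 active = z-score under -2 on both plates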;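 also: wells of about 30 µL received 100 nL stock; score is relative to mean and SD of the test wells; the first replicate is given; strong numbers were not always called active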
CapD inh: CapD enzyme inhibition; purified CapD enzyme, fluorescence intensity read-out; stronger effect = lower value; some hits fall short of the stated cut; z-score (no concentration beside the values); 140,000 tested, 0.23% active;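 active = z-score under -4 in either of two replicates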;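 also: stock transfer was 100 nL into about 40 µL; score is relative to mean and spread of the plate; one replicate is shown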
* hit, by the source's call; · = not tested or not shown.

SMILES	AID504770	CapD inh
COc1ccc(C(=O)Nc2ccc3oc(-c4cccc(Br)c4)nc3c2)cc1[N+](=O)[O-]	·	0.38
O=C(O)c1ccccc1N/C=C/[N+](=O)[O-]	·	29
Cc1ccccc1OCCN(C#N)c1nc(N(C)C)nc(N(C)C)n1	·	-0.27
COc1ccc(OC)c(S(=O)(=O)N2CCCC2C(=O)N2CCc3ccccc3C2)c1 (configuration not stated)	-0.5	·
O=C1Cc2ccccc2C(=O)N1c1cccc(C(F)(F)F)c1	-0.55	·
CCN(C(=O)CN1C(=O)N(c2ccc(C)c(Cl)c2)S(=O)(=O)c2ccccc21)c1ccccc1	-1	-1.9
CN(C)Cc1c(O)ccc2c(=O)c(-c3ccc4c(c3)OCCO4)coc12	-0.05	18
Cc1c(C(=O)N(Cc2ccc(N(C)C)cc2)Cc2ccco2)oc2ccccc12	0.45	-0.15
COc1ccc(C(=O)c2c(O)nc3ccccn3c2=O)cc1	-0.9	·
COc1ccccc1OCc1ccoc1C(=O)O	-0.6	·
COC(=O)c1cnc(N2CCCN(C(=O)C3COc4ccccc4O3)CC2)nc1C(F)(F)F (configuration not stated)	-0.6	1.9
CC1(CC(=O)N/N=C/c2cccc(Br)c2)OCCO1	-0.35	0.39
CCOc1ccc(-n2c(=S)sc3c2nc(SCC(=O)O)n2c4ccccc4nc32)cc1	·	-0.21
O=C(NCCSc1ccc(Cl)cc1)c1ccc(Cl)c(Cl)c1	·	-0.14
Cc1ccc(-n2cc(-c3ccccc3)c3c(NCCc4ccc(S(N)(=O)=O)cc4)ncnc32)cc1Cl	·	-0.23
C=CCN1CC(O)=C(c2nc3ccccc3s2)C1=N	-0.75	49
COCCNC(=O)c1nnc(Cc2ccc(C)cc2)o1	-0.5	0.03
CC(c1ccco1)N(C(=O)c1cccs1)c1ccccn1 (configuration not stated)	-0.45	-0.37
Cc1cc(C)c(C)c(S(=O)(=O)N2CCN(c3cc(C(F)(F)F)nc4ccccc34)CC2)c1C	·	0.03
CCCCN(C(=O)c1ccc2c(c1)OCO2)c1ccccc1	-0.75	-1.3
CCOc1ccc(/C=C/C(=O)Nc2ccc(S(=O)(=O)Nc3nc(C)cc(C)n3)cc2)cc1	·	3.4
COc1cccc(C(=O)Nc2cccc(-c3ccc4nncn4n3)c2)c1OC	-0.85	·
O=C1C(=Nc2cccc(C(F)(F)F)c2)c2ccccc2N1CN1CCc2ccccc2C1	0.05	-0.03
CCS(=O)(=O)c1nc(S(=O)(=O)c2ccc(Cl)cc2)c(NCCN2CCOCC2)s1	-0.05	0.36
Cc1ncc(CO)c(/C=N/N=C/c2ccc(Cl)cc2)c1O	-0.95	0.33
O=C(Cn1cc2c(n1)CCCCC2)Nc1ccccc1Br	-0.2	-0.33
O=C(O)c1ccc(-n2nnnc2Oc2ccccc2C(=O)N2CCOCC2)cc1	0.45	0.44
CNc1nc2ccccc2[nH]1	0.5	1.3
COCCN1C(=O)c2oc3ccccc3c(=O)c2C12C(=O)N(C)c1ccccc12 (configuration not stated)	0.45	-0.49
CC(C)(C)c1cc2nc(C(F)(F)F)cc(N3CCN(C(=O)OCCc4ccc5ccccc5c4)CC3)n2n1	·	23
CCN1CCC(NC2C3CC4CC(C3)CC2C4)CC1 (configuration not stated)	0.95	0.39
CCN(CC)C(=O)n1cnc(-c2ccccc2)c1-c1ccccc1	0.4	0.4
Nc1c(C(=O)Nc2ccc([N+](=O)[O-])cc2)sc2nc3c(c(-c4ccco4)c12)CCCC3	·	-0.14
CC1=NN(c2ccccc2)C(=O)C1CCC#N (configuration not stated)	-0.8	·
NC(=O)NC1CCCCC1	0.5	0.38
Cc1ccc(C(=O)Nc2ccccc2C)cc1	-0.65	0.075
Cc1cc2oc(=O)cc(COC(=O)c3ccccn3)c2cc1C	0.85	·
Cc1cc(C)c2c(-n3cccc3)c(C(=O)NCc3cccnc3)sc2n1	-0.55	0.45
CC(=O)N1CCc2cc(NC(=O)NC34CC5CC(CC(C5)C3)C4)ccc21	-0.9	·
Cc1sc2nc(C(C)(C)C)oc(=O)c2c1C	·	0.64
O=C1c2ccccc2C(=O)c2c(NC(=O)C3CC3(c3ccccc3)c3ccccc3)cccc21 (configuration not stated)	·	-0.12
COCCN1C(=O)/C(=C/N2CCN(S(=O)(=O)c3ccc(Cl)cc3)CC2)C(=O)NC1=S	0.5	·
CC(=O)NCCc1ccc(C(=O)CSc2nnc3n2CCCCC3)cc1	-0.35	·
O=C(Oc1ccc([N+](=O)[O-])cc1)c1c(Cl)cccc1Cl	·	-0.12
CC(CC(=O)O)CC(=O)N1CCN(c2cccc(C(F)(F)F)c2)CC1 (configuration not stated)	·	-0.18
COc1ccccc1O[C@@H]1O[C@H](COC(C)=O)[C@@H](OC(C)=O)[C@H](OC(C)=O)[C@H]1NC(C)=O	·	0.51
OC1(C2(O)CCCCC2)CCCCC1	-0.05	0.05
CCCCOc1ccc(C(=O)Oc2ccc(C#N)cc2)c(Cl)c1	·	0.22
O=C(c1cnn2ccccc12)N(Cc1ccco1)C1CCCC1	-0.6	2.4
Cc1cccc(S(=O)(=O)N2CCCC2)c1	-0.25	·
New compounds follow
SMILES	AID504770	CapD inh
Clc1ccc(CSc2nnc(-c3ccncc3)s2)cc1	-0.2	1.3
O=C(Nc1ccccn1)C1COc2ccccc2O1 (configuration not stated)	1.1	-0.47
CC(C)(/C=N/O)/[N+]([O-])=C/c1ccccc1	0.8	0.23
CCOC(=O)c1cc(NC(=O)c2ccc(OC)cc2)c(=O)n2c1oc1ccccc12	-0.6	0.01
CNC(=O)c1ccc(N2CCc3ccccc32)s1	0.75	65
Cc1[nH]c2ccccc2c1C(Nc1ccccc1C(F)(F)F)c1ccccn1 (configuration not stated)	-0.7	-0.36
C=CCSc1c2c(c(C#N)c3nc4ccccc4n13)CCC2	-1.1	3.1
CC12CN(Cc3ccccc3)CC(C)(CN(Cc3ccccc3)C1)C2=NO	0.55	-0.5
Cc1ccccc1CO/N=C\c1[nH]ncc1Br	1.4	-0.055
CC1(C)CCc2cc(-c3ccn(C(=O)c4ccc(Cl)cc4)n3)ccc2O1	-1.1	3.5
CC1CCc2cc(F)ccc2N1Cc1nnc(-c2ccccc2)o1 (configuration not stated)	-0.95	·
N#Cc1c(-c2ccc(Cl)cc2)csc1S(=O)C1CCCCC1 (configuration not stated)	-0.05	0.15
Nc1c(-c2nc3ccccc3[nH]2)nnn1Cc1ccccc1	0.4	1.4
COC(=O)COc1ccc(/C=C2\C(=O)NC(=O)N(c3ccc(OC)cc3)C2=O)cc1OC	·	-0.54
COc1ccc2c(c1)c1nc(SCC(=O)c3ccccc3)n(CCO)c(=O)c1n2C	-0.4	0.58
O=c1oc2ccc(NS(=O)(=O)c3cccc4ccccc34)cc2s1	-0.2	0.27
CCN(CC)S(=O)(=O)c1ccc(C(=O)Nc2c3c(nn2-c2ccc([N+](=O)[O-])cc2)CSC3)cc1	·	-1
FC(F)(F)CCSc1nnc(-c2cccs2)n1-c1ccccc1	-0.55	·
CSc1nc2ccccc2n1C	1.1	-0.85
CC[C@@]1(O)C[C@H](O[C@H]2C[C@H](N(C)C)[C@H](O)[C@H](C)O2)c2c(cc3c(c2O)C(=O)c2c(O)ccc(O)c2C3=O)[C@H]1C(=O)OC	0.45	·
Cc1ccccc1CN1CCN(C2c3ccccc3-c3ccccc32)CC1	0.15	0.31
CCc1ccc(-c2cn3c(n2)sc2cc(C(=O)O)ccc23)cc1	-1	11
COc1ccc(CCCOC(=O)N2CCC(C(N)=O)CC2)cc1	·	0.15
O=C(NCC1CC2CCC1C2)c1n[nH]c(=O)c2ccccc12 (configuration not stated)	0.05	·
COC(=O)c1ccc(C2C(C#N)=C(N)Oc3n[nH]c(-c4ccc(OC)c(OC)c4)c32)cc1 (configuration not stated)	·	0.005
O=C(O)/C=C/C(=O)Nc1nnc(-c2ccccc2F)s1	1.8	·
O=C(Oc1ccc2oc3ccccc3c2c1)c1ccc(=O)[nH]c1	1.4	·
COC(=O)C1=C(C)NC2=C(C(=O)CC(c3ccc(OC)cc3)C2)C1c1ccc(OC)c(Br)c1 (configuration not stated)	·	8.2
CC(=O)n1c(=O)n(C(C)=O)c2cc(Br)ccc21	0.15	-0.68
Cc1nn(CC(=O)N2CCc3ccccc32)c(C)c1S(=O)(=O)N(C)C	-0.1	·

Arranged by count of non-hydrogen atoms (falling): part of the list above.
SMILES	AID504770	CapD inh
CC[C@@]1(O)C[C@H](O[C@H]2C[C@H](N(C)C)[C@H](O)[C@H](C)O2)c2c(cc3c(c2O)C(=O)c2c(O)ccc(O)c2C3=O)[C@H]1C(=O)OC	0.45	·
CC(C)(C)c1cc2nc(C(F)(F)F)cc(N3CCN(C(=O)OCCc4ccc5ccccc5c4)CC3)n2n1	·	23
Cc1ccc(-n2cc(-c3ccccc3)c3c(NCCc4ccc(S(N)(=O)=O)cc4)ncnc32)cc1Cl	·	-0.23
O=C1c2ccccc2C(=O)c2c(NC(=O)C3CC3(c3ccccc3)c3ccccc3)cccc21 (configuration not stated)	·	-0.12
COC(=O)c1cnc(N2CCCN(C(=O)C3COc4ccccc4O3)CC2)nc1C(F)(F)F (configuration not stated)	-0.6	1.9
O=C1C(=Nc2cccc(C(F)(F)F)c2)c2ccccc2N1CN1CCc2ccccc2C1	0.05	-0.03
CCOc1ccc(-n2c(=S)sc3c2nc(SCC(=O)O)n2c4ccccc4nc32)cc1	·	-0.21
COc1ccc(C(=O)Nc2ccc3oc(-c4cccc(Br)c4)nc3c2)cc1[N+](=O)[O-]	·	0.38
CCS(=O)(=O)c1nc(S(=O)(=O)c2ccc(Cl)cc2)c(NCCN2CCOCC2)s1	-0.05	0.36
Cc1[nH]c2ccccc2c1C(Nc1ccccc1C(F)(F)F)c1ccccn1 (configuration not stated)	-0.7	-0.36
Cc1ccccc1CN1CCN(C2c3ccccc3-c3ccccc32)CC1	0.15	0.31
CN(C)Cc1c(O)ccc2c(=O)c(-c3ccc4c(c3)OCCO4)coc12	-0.05	18
CC(CC(=O)O)CC(=O)N1CCN(c2cccc(C(F)(F)F)c2)CC1 (configuration not stated)	·	-0.18
O=c1oc2ccc(NS(=O)(=O)c3cccc4ccccc34)cc2s1	-0.2	0.27
O=C(c1cnn2ccccc12)N(Cc1ccco1)C1CCCC1	-0.6	2.4
N#Cc1c(-c2ccc(Cl)cc2)csc1S(=O)C1CCCCC1 (configuration not stated)	-0.05	0.15
O=C(NCCSc1ccc(Cl)cc1)c1ccc(Cl)c(Cl)c1	·	-0.14
Clc1ccc(CSc2nnc(-c3ccncc3)s2)cc1	-0.2	1.3
C=CCN1CC(O)=C(c2nc3ccccc3s2)C1=N	-0.75	49
CNC(=O)c1ccc(N2CCc3ccccc32)s1	0.75	65
CC1=NN(c2ccccc2)C(=O)C1CCC#N (configuration not stated)	-0.8	·
Cc1sc2nc(C(C)(C)C)oc(=O)c2c1C	·	0.64
O=C(O)c1ccccc1N/C=C/[N+](=O)[O-]	·	29
OC1(C2(O)CCCCC2)CCCCC1	-0.05	0.05
CSc1nc2ccccc2n1C	1.1	-0.85
CNc1nc2ccccc2[nH]1	0.5	1.3
NC(=O)NC1CCCCC1	0.5	0.38

Following part:
SMILES	AID504770	CapD inh
CSc1ccc(-c2nc(-c3ccccc3)c(-c3ccc(F)cc3)[nH]2)cc1	·	78
Cc1ccccc1NC(=O)NCCc1ccccc1	0.15	0.84
Cc1cc(=O)oc2cc(OC(=O)C(C)N3C(=O)CCC3=O)ccc12 (configuration not stated)	-0.15	60
COC(=O)CN1C(=O)c2cccnc2Oc2ccc(C)cc21	0.2	-0.33
COc1ccc(-c2cc(C(=O)NCCCN3CCOCC3)no2)cc1	0.4	0.41
S=C1N=C(Nc2ccccc2)C2(CCCCC2)N1c1cccc(Cl)c1	·	0.11
CCCCOC(=O)c1cc(Cl)c(=O)n(Cc2ccc(Cl)cc2Cl)c1	·	0.17
CC(C)(C)C(=O)n1nccc1-c1ccc(-c2cccs2)s1	-0.1	74
COc1ccc(-n2c(-c3ccc(Cl)cc3)n[nH]c2=S)cc1	-1.1	4.2
NC(=O)c1cccn1Cc1ccc(Cl)cc1	-0.3	0.18
Oc1ccc(Cl)cc1C1=NOC(O)(C(F)(F)F)C1 (configuration not stated)	0	2
CC(Nc1nc(N2CCCC2)nc2ccccc12)c1ccccc1 (configuration not stated)	-0.25	58
O=S(=O)(c1ccccc1)N(Cc1ccc(Cl)cc1)c1nccs1	0.2	·
CCOC(=O)/C=C(/Nc1ccccc1SC)c1ccccc1	-1.5	-0.06
CCOc1ccccc1/C=N/NC(=O)c1ccc([N+](=O)[O-])cc1Cl	·	-1.8
O=C(NC1CCN(C(=O)c2cccnc2Oc2ccccc2)CC1)c1ccccc1	-0.55	0.51
S=C(Nc1ccc(Oc2ccccc2)cc1)N(CCN1CCCCCC1)Cc1ccco1	-0.65	0.75
CN1CCN(c2nnc(-n3cccc3CNCCCN3CCOCC3)s2)CC1	-0.05	-1
CN(C)/C=C\C(=O)C(Cc1c(Cl)cccc1Cl)C(=O)/C=C/N(C)C (configuration not stated)	·	-3.1
Cc1cccc(C)c1-n1nnnc1C1(N(C)O)CCCCC1	·	-0.065
S=c1nccc(-c2ccc(Cl)cc2)[nH]1	·	-0.31

Bioassay records: PubChem, ICCB-Longwood Screening Facility, Harvard Medical School
